# Assay outcomes: PubChem BioAssay, several laboratories
# HSV replic up: HSV replication enhancement | HSV replication augmentation in cells, fold increase | maximum fold increase | 0.005% of 220,000 active | AID 1956;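 active = peak rise of 1.5-fold or more in the series; tested in PC3 cells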;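 note: first round at 10 µM; read as green reporter fluorescence; hits show the peak of a series up to 25 µM; 1 = signal of infected wells without compound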
# PKD1 kinase inh: PKD1 (human) kinase inhibition. PKD1 kinase fluorescence polarization assay. inhibition, %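 (about 10 µM by stock and volumes)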. 0.056% of 200,000 active. AID 797;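 active = inhibition of 50% or more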;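 note: controls were vehicle for no effect and a reference inhibitor for full effect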
# Target sequence (Q15139 whole entry, looked up): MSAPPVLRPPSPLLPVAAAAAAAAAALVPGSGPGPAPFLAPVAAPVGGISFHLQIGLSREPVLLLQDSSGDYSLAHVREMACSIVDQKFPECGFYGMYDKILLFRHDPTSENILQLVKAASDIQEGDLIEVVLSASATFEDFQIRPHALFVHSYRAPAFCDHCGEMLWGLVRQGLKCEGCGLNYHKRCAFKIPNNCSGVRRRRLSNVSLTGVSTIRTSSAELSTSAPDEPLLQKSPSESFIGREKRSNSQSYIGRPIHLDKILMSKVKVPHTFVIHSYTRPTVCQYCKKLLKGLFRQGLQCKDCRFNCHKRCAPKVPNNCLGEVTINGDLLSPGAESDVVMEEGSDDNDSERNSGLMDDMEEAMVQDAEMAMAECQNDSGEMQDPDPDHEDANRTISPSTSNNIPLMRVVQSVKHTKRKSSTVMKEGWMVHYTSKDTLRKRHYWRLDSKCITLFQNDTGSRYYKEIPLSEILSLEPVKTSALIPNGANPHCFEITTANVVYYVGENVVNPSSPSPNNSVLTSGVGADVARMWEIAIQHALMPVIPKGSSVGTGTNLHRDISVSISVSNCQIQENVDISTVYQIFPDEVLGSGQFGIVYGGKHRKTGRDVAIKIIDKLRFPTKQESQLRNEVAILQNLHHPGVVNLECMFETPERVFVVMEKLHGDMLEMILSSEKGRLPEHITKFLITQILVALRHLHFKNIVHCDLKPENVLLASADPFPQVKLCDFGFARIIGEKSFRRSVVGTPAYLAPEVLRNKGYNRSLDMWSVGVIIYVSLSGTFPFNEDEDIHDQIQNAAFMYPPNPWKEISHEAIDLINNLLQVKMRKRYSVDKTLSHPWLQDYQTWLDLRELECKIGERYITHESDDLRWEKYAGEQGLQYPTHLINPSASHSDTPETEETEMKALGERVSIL
# GALR2 agonist: activates the human galanin receptor 2. AID 803. activation, %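 (tested at 5 µM)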. 0.48% of 140,000 active. GALR2-expressing cells, agonist activation read-out. O43603;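 active = above mean plus 3 SD of all compounds, about 5% in these data, not always enough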;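 note: 0% = vehicle buffer wells and 100% = reference agonist at full effect; tested in CHO reporter cells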
# RGS16-Gao HTS: RGS16-Galphao interaction regulator (human); O15492+P09471; bead-based flow cytometry RGS16-Galphao binding, fluorescence; actives lie on both sides; binding response (% of control), % at 10 µM; 0.38% of 220,000 active; AID 1441;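 active = below 25% or above 175%, edge rows of some plates excepted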;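 note: Galphao activated by GDP with aluminum fluoride before binding; 100% = wells without compound and 0% = beads without RGS; some results beyond the cut were filed as inactive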
# Insulin prom inh: TRM-6 insulin promoter activity inhibition | 0.9% of 130,000 active | AID 1273 | TRM-6 cells (human fetal islet line), insulin promoter-eGFP reporter, imaging; reporter expression induced with tamoxifen | inhibition, % at 2 µM;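 active = inhibition above the mean plus 3 SD, with well images judged a real hit on visual review, cut at about 60% in these data, passing the limit was not always enough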
# Insulin prom inh cell count: also measured in Insulin prom inh; calls as there; normalized cell count, %; measured here: cell count, toxicity; reference of the scale not given here;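 cells exposed to compound for 48 h; stained nuclei by imaging scaled within each plate; lower means fewer cells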
# HSV replic up primary fold: second read-out of HSV replic up, no call of its own (marks repeat the call); fold increase; compound at 10 µM; measured here: primary screen fold increase 10 uM; tested in PC3 cells;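 GFP signal in the first replicate; 1 = infected wells without compound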
# * hit, by the source's call; i = inactive; / = not tested or not shown.
compound | Insulin prom inh | RGS16-Gao HTS | PKD1 kinase inh | GALR2 agonist | HSV replic up | HSV replic up primary fold | Insulin prom inh cell count
O=C1CN(C(=O)c2cnccn2)c2ccccc2N1 | / | 102 | -8 | -5.0 | i | 1.1 | /
Cc1noc(C(=O)NCc2cccnc2)c1Cl | / | 108 | -1 | -0.5 | i | 1.1 | /
CCOC(=O)CC(C#N)c1c[nH]c2ccccc12 (centres undefined) | 3 | 95 | 8 | -1.1 | i | 1.1 | 69
O=c1cc[nH]c2cc(C(F)(F)F)ccc12 | 38 | 102 | -6 | -1.6 | i | 1.2 | 111
C=CCn1c(SCC(=O)NCC(=O)OCC)nnc1-c1cccc(OC)c1 | / | 76 | 10 | -1.3 | i | 1 | /
CC(=O)c1cc(C)ccc1OC(=O)CCN1C(=O)C2C3c4ccccc4C(c4ccccc43)C2C1=O (centres undefined) | -18 | 114 | 3 | -0.3 | i | 1.2 | 84
O=C(Nc1cccc2ccccc12)c1cn(-c2ccccc2)nc1-c1cccs1 | -8 | 99 | 7 | -2.3 | i | 1 | 107
COc1ccc2cc(C3(C)NC(=O)N(CC(=O)NCCC4=CCCCC4)C3=O)ccc2c1 (centres undefined) | / | 88 | -13 | -1.6 | i | 0.93 | /
O=c1[nH]n(-c2ccccc2)c(=O)c2ccccc12 | / | 102 | -11 | -0.7 | / | / | /
Cc1cc(C)n(Cc2cnc(N3CCOCC3)s2)n1 | 55 | 104 | -8 | / | i | 0.89 | 124
Cc1nc(C)c(C(=O)C2=C(O)C(=O)N(CCN(C)C)C2c2ccco2)s1 (centres undefined) | / | 95 | / | / | i | 1.2 | /
COC(=O)c1cc(NC(=O)c2ccco2)ccc1N1CCOCC1 | / | 101 | / | / | i | 1 | /
CCCCN1Cc2cc(C(=O)c3cc(OC)ccc3O)cnc2NC1=O | 3 | 105 | 0 | 1.3 | i | 1 | 122
COc1ccc(CCC(=O)OCC(=O)c2ccc(C)cc2)cc1 | 31 | 112 | -1 | -1.6 | i | 0.71 | 82
CCc1nc2ccccc2n1Cc1ccc(F)cc1 | 13 | 100 | -2 | / | i | 0.81 | 123
COc1ccc(C2C(C(=O)Nc3ccccc3OC)=C(C)Nc3ncnn32)cc1 (centres undefined) | / | 61 | -7 | -1.2 | i | 0.96 | /
C=CCn1c(Cc2c(C)[nH]c3ccccc23)nnc1SCC(=O)NCc1ccc(F)cc1 | 21 | 42 | -2 | 0.0 | i | 0.9 | 108
CCc1ccccc1NC(=O)CN(c1cccc(OC)c1)S(C)(=O)=O | -49 | 100 | -14 | -1.1 | i | 0.94 | 106
CCOc1cc(CNCCc2ccc(S(N)(=O)=O)cc2)cc(Cl)c1OCc1ccccc1 | / | 102 | 5 | -1.0 | i | 0.49 | /
CCOC(=O)C1=C(Nc2ccc(OC)cc2)OCC1=O | / | 108 | / | / | i | 0.89 | /

# (continued)
compound | Insulin prom inh | RGS16-Gao HTS | PKD1 kinase inh | GALR2 agonist | HSV replic up | HSV replic up primary fold | Insulin prom inh cell count
CCOC(=O)c1cc2occc2n1CC(=O)NCCOC | 31 | 110 | 2 | -2.4 | i | 0.95 | 107
COc1ccc(OC)c(CN2CCN(c3ccccc3OC)CC2)c1 | -15 | 101 | -2 | -2.1 | / | / | 92
CC(C)Nc1ncnc2c1cnn2-c1ccc(Cl)cc1 | 40 | 101 | 8 | -0.4 | i | 0.82 | 73
CCSc1nnc(-c2ccccc2N=Cc2c(C)[nH]n(-c3ccccc3)c2=O)c(=O)[nH]1 | 27 | 103 | 3 | -0.3 | i | 1 | 201
C=CCN1C(=O)/C(=c2\sc3nc(=O)c(Cc4ccccc4Cl)nn3c2=O)c2ccccc21 | / | 94 | / | / | i | 1.1 | /
COc1cccc(CC(=O)Nc2nc3c(s2)C(=O)CC(C)(C)C3)c1 | / | 104 | 0 | / | i | 0.95 | /
Nc1ccc2oc3ccc(N)cc3c(=O)c2c1 | / | 54 | -4 | 0.0 | i | 0.9 | /
COc1ccc(S(=O)(=O)N2CC=C(C(=O)Nc3ccc(NC(C)=O)cc3)CC2)cc1 | -11 | 108 | 1 | / | i | 0.9 | 112
CC(=O)Nc1ccc(OCC(O)Cn2c3ccccc3c3ccccc32)c(C)c1 (centres undefined) | / | 101 | 3 | -1.2 | i | 0.84 | /
Cc1cccc2cc(CN(Cc3ccc(F)cc3)C(=O)N(C)C)c3nnnn3c12 | / | 95 | 8 | 0.6 | i | 1.1 | /
CCCOc1ccc(CNCCCOCC)cc1OC | / | 99 | 0 | / | i | 0.95 | /
N/C(CSc1ccc(Cl)cc1)=N\S(=O)(=O)c1ccc(Cl)cc1 | / | 105 | / | / | i | 1.2 | /
O=C(NC(=S)Nc1cccc(CO)c1)c1ccc(-c2ccccc2)cc1 | 36 | 80 | 2 | -0.9 | i | 0.87 | 140
CN1CCN(c2ccccc2NC(=O)COc2ccc(Br)cc2)CC1 | -41 | 121 | 2 | -1.4 | i | 0.84 | 84
COc1cc(C)c(S(=O)(=O)N2CCN=C2c2ccccc2)cc1C | -26 | 33 | -9 | -0.5 | i | 0.97 | 51
CSc1ccccc1NC(=O)CN(C)CC(=O)Nc1cccc(Br)c1 | -50 | 106 | -7 | / | i | 1 | 108
Cc1ccc(C)c(NC(NC(=O)c2ccccn2)C(Cl)(Cl)Cl)c1 (centres undefined) | / | 75 | -6 | / | i | 0.93 | /
O=C1CC(c2ccccc2)=Nc2ccccc2N1 | 0 | 97 | 6 | -1.3 | i | 1.2 | 157
CCOC(=O)N1CCN(C(=O)c2ccccc2CCc2ccccc2)CC1 | -93 | 105 | -20 | -2.8 | i | 0.95 | 105
C/C(=C\C(=O)Nc1cc(C)on1)c1ccccc1 | 50 | 98 | -6 | -1.2 | i | 0.87 | 107

# Entries listed so far that have a Cl atom:
compound | Insulin prom inh | RGS16-Gao HTS | PKD1 kinase inh | GALR2 agonist | HSV replic up | HSV replic up primary fold | Insulin prom inh cell count
Cc1noc(C(=O)NCc2cccnc2)c1Cl | / | 108 | -1 | -0.5 | i | 1.1 | /
CCOc1cc(CNCCc2ccc(S(N)(=O)=O)cc2)cc(Cl)c1OCc1ccccc1 | / | 102 | 5 | -1.0 | i | 0.49 | /
CC(C)Nc1ncnc2c1cnn2-c1ccc(Cl)cc1 | 40 | 101 | 8 | -0.4 | i | 0.82 | 73
C=CCN1C(=O)/C(=c2\sc3nc(=O)c(Cc4ccccc4Cl)nn3c2=O)c2ccccc21 | / | 94 | / | / | i | 1.1 | /
N/C(CSc1ccc(Cl)cc1)=N\S(=O)(=O)c1ccc(Cl)cc1 | / | 105 | / | / | i | 1.2 | /
Cc1ccc(C)c(NC(NC(=O)c2ccccn2)C(Cl)(Cl)Cl)c1 (centres undefined) | / | 75 | -6 | / | i | 0.93 | /

# Look-ups from the list:
# `COc1ccc(C2C(C(=O)Nc3ccccc3OC)=C(C)Nc3ncnn32)cc1` (centres undefined) – RGS16-Gao HTS = 61
# `CCOC(=O)N1CCN(C(=O)c2ccccc2CCc2ccccc2)CC1` – Insulin prom inh cell count = 105

# Additional results follow.
compound | Insulin prom inh | RGS16-Gao HTS | PKD1 kinase inh | GALR2 agonist | HSV replic up | HSV replic up primary fold | Insulin prom inh cell count
COc1ccc(C)cc1-n1nnnc1SC/C(O)=C(\C#N)c1nc2ccccc2[nH]1 | 50 | 81 | -5 | -0.8 | i | 0.83 | 41
COc1cc(/C=N\Nc2cc(=O)n(C)c(=O)n2C)ccc1O | 23 | 122 | 5 | 0.2 | / | / | 99
COc1ccc(NC(=O)N/C=C/c2ccc(Cl)cc2)cc1 | / | 102 | -5 | / | i | 1 | /
CC1(NC(=S)NCCO)CCS(=O)(=O)C1 (centres undefined) | / | 104 | -5 | -0.9 | i | 0.83 | /
Fc1ccccc1CSc1nc2ncccc2[nH]1 | 24 | 107 | -3 | 1.2 | i | 0.95 | 153
COc1ccc(/C=C2\SC(=O)N(CCNC(=O)CCS(=O)(=O)c3ccc(C)cc3)C2=O)cc1 | / | 102 | -9 | -2.8 | i | 0.9 | /
CCOc1ccccc1-n1nnnc1SCC(=O)NC(=O)Nc1ccc2c(c1)OCCO2 | -3 | 101 | -2 | -1.7 | i | 0.96 | 31
CCN(CC)S(=O)(=O)c1ccc(C(=O)NCc2n[nH]c(=S)n2-c2ccccc2OC)cc1 | -50 | 97 | -2 | -1.9 | i | 1 | 147
Clc1ccc(Cn2ncc3c(N4CCOCC4)ncnc32)cc1 | 65 | 104 | 0 | 0.2 | i | 0.88 | 132
Cc1ccc(CCN2CC(C(=O)O)CC2=O)cc1 (centres undefined) | 19 | 102 | -12 | -2.6 | i | 0.87 | 132
Cc1cc(C)cc(N(C(C)C(=O)NCCC2=CCCCC2)S(C)(=O)=O)c1 (centres undefined) | -33 | 93 | -3 | -1.2 | i | 0.96 | 86
CCOC(=O)CNC(=O)CSc1nc2cccnc2n1C1CCCCC1 | 15 | 93 | -1 | -2.9 | i | 0.91 | 115
NC(=O)Cn1cnc(-c2ccccc2)c1 | / | 100 | -6 | -1.1 | i | 0.86 | /
COc1ccc(CNC(=O)CSc2nnc(C)s2)cc1 | 13 | 110 | -17 | -1.5 | i | 0.78 | 156
O=C(CCNc1cccc(F)c1)c1cccc([N+](=O)[O-])c1 | 0 | 95 | -3 | / | i | 1 | 93
CCC1CCCCN1CCCNC(=O)c1ccc(N2CCOCC2)c(NS(=O)(=O)c2ccc(OC)cc2)c1 (centres undefined) | 42 | 110 | 1 | / | i | 0.9 | 133
COc1cc(C(=O)N2CCC(NC(=O)C(Cc3ccccc3C)NC(C)=O)CC2)cc(OC)c1OC (centres undefined) | -7 | 106 | -14 | -3.9 | i | 0.93 | 136
S=C(NCc1ccc2[nH]c3c(c2c1)CCCC3)Nc1ccccc1 | 41 | 55 | -8 | 0.1 | i | 0.96 | 115
N=C(c1ccc([N+](=O)[O-])cc1)N1CCCCC1 | / | 99 | -8 | / | i | 0.92 | /
COc1ccc(C(C)=O)cc1COC(=O)c1cc(C)nc2ccccc12 | / | 96 | 0 | / | i | 0.95 | /

# Later entries.
compound | Insulin prom inh | RGS16-Gao HTS | PKD1 kinase inh | GALR2 agonist | HSV replic up | HSV replic up primary fold | Insulin prom inh cell count
CC(Sc1nnnn1-c1ccccc1)C(=O)Nc1ccc(Cl)cn1 (centres undefined) | -8 | 27 | -6 | -0.4 | i | 1.1 | 100
CC(=O)c1cc(C)ccc1OC(=O)c1ccco1 | 50 | 105 | 5 | 11* | i | 1 | 95
Cc1cccc(N2CCN(C(=O)CCCOc3ccccc3)CC2)c1C | / | 104 | -6 | 0.3 | i | 0.95 | /
CN(C)/C=N/C1=C(C#N)C(c2cccs2)c2ccc3ccccc3c2O1 (centres undefined) | / | 98 | 2 | / | i | 0.98 | /
COC(=O)c1cccc(Nc2ccc([N+](=O)[O-])cn2)c1 | / | 103 | -5 | / | i | 0.99 | /
COc1ccc(/C=C/c2nc3sc4c(c3c(=O)o2)CCC4)cc1 | -107 | / | -3 | -1.9 | i | 0.99 | 123
Cc1ccc(C)c(Cn2nnc3c(=O)[nH]c(C(=O)Nc4ccc(F)cc4)nc32)c1 | -44 | 98 | -2 | / | i | 1 | 77
CC(C)C(=O)N1CCC2(CC1)Oc1ccc(Cl)cc1C(=O)C21CC(c2ccccc2)=NO1 (centres undefined) | / | 104 | / | / | i | 0.85 | /
Fc1ccccc1Cn1cc(C(=S)N2CCOCC2)c2ccccc21 | / | 91 | / | / | i | 1 | /
CN(c1ccc(OCC(=O)OCC(=O)c2c(N)n(C)c(=O)n(C)c2=O)cc1)S(=O)(=O)c1ccc2ccccc2c1 | 50 | 109 | 14 | / | i | 0.93 | 162
O=C(CNC(=O)c1ccco1)OCC(=O)c1ccc(Cl)cc1Cl | 42 | 106 | -7 | / | i | 1 | 112
O=[N+]([O-])c1ccc(N2CCCCC2)cc1N1CCOCC1 | -42 | 105 | -1 | -2.3 | / | / | 167
O=C(NC(=S)N1CCc2ccccc21)c1ccc(Br)o1 | / | 100 | -13 | / | i | 0.81 | /
CCCc1nnc(SCC(=O)N(CC)CC)n1CC1CCCO1 (centres undefined) | / | 98 | 0 | / | i | 1 | /
CCOC(=O)Cc1nnc(NC(=O)c2cccc(OCC)c2)s1 | / | 95 | 1 | -0.5 | i | 0.9 | /
CCCCOC(=O)Nc1nnc(CCc2ccccc2)s1 | / | 89 | 1 | -0.6 | i | 0.94 | /
O=C(NCc1ccco1)C1CCN(C(=O)c2cc3sccc3n2Cc2ccc(Cl)cc2)CC1 | / | 101 | -14 | -1.6 | i | 1.1 | /
Cc1cc(C)c(C#N)c(SCC(=O)c2cc(C)n(CCc3ccccc3)c2C)n1 | -31 | 116 | -4 | -0.6 | i | 1 | 79
Cc1cccc(C)c1-n1c(SCC(=O)Nc2ccc(C(=O)O)cc2)nnc1-c1cccc(S(=O)(=O)N(C)C)c1 | -28 | 95 | 10 | / | i | 0.99 | 88
CNC(=O)CSc1nc2c(c(=O)n(C)c(=O)n2C)n1Cc1ccc(C)cc1 | 7 | 105 | 0 | -2.5 | i | 1 | 103
